GAA inh – blocks human lysosomal alpha-glucosidase | hit rate 0.005% among 200,000 | purified human GAA, 4-MU-alpha-glucoside fluorescence | P10253 | Potency, µM (titrated, usually from 76.9 µM), for the others: top-dose activity change, negative = inhibition, hits mostly inhibitors;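 further: plate controls were uninhibited enzyme wells for no effect and no-enzyme background for full effect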
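AC50 values come from Hill fits of compound titrations (up to 77 uM) against 4 nM human enzyme. Substrate 4-methylumbelliferyl-alpha-D-pyranoside at 400 uM, pH 5.0 citrate buffer, 20 min room temperature; fluorescence Ex 365/Em 440 after alkaline stop.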
GAA glycogen – inhibitors or activators of human alpha-glucosidase glycogen cleavage; P10253; recombinant GAA, glycogen substrate, Amplex Red glucose oxidase fluorescence; Potency, µM (doses to about 76.4 µM), for the others: at the highest dose activity change, negative = inhibition, most hits filed as inhibitors; hit rate 0.38% among 300,000; AID 2100;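 further: 0% = full enzyme reaction and -100% = no-enzyme basal signal; the screen sought inhibitors and activators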
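Recombinant human alpha-glucosidase (4 nM final) hydrolysed bovine liver glycogen (30 ug) for 40 min at 37 C in pH 5.0 citrate/phosphate with 0.01% Tween-20. Released glucose detected by glucose oxidase/Amplex Red, Ex 573/Em 610 nm. Compounds up to 77 uM; AC50 from Hill fits.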
GAA spleen mod – inhibitors or activators of human alpha-glucosidase in spleen homogenate | P10253 | human spleen homogenate, 4-MU-alpha-glucoside fluorescence | Potency, µM (top dose mostly 79.9 µM), for inactives: top-dose activity change, negative = inhibition, most hits filed as inhibitors | hit rate 0.006% among 240,000 | AID 2112;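 further: 0% = enzyme with vehicle and -100% = no enzyme basal signal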
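AC50 values come from Hill-equation fits of concentration-response data, normalized to no-enzyme and full-activity controls. Enzyme source: 1 ug human spleen homogenate; 1 mM fluorogenic 4-MU glucoside, pH 5.0 citrate buffer, 37 C, 40 min.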
GLA spleen mod – alpha-galactosidase A (human) modulation | P06280 | human spleen homogenate, 4MU-alpha-Gal fluorescence, 40 min | Potency, µM (series often up to 80 µM), inactives show at the top dose activity change, negative = inhibition, hits mostly inhibitors | hit rate 0.008% among 240,000 | AID 2107;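 further: 0% = enzyme with vehicle and -100% = no enzyme basal signal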
Target sequence (P06280 32-429 limits assumed): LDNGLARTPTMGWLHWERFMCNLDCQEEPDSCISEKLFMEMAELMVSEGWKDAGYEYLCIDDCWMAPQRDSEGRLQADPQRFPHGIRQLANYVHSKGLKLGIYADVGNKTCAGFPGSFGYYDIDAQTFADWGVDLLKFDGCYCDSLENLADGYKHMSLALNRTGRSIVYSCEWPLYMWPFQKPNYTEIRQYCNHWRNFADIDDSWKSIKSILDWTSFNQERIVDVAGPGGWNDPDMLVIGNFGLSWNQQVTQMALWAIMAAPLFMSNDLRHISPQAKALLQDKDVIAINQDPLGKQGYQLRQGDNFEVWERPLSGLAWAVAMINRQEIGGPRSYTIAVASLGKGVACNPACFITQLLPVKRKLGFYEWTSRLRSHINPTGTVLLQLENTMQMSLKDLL
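Spleen homogenate 1 ug + cpd (titration) + 4-MU-alpha-D-galactopyranoside 1 mM; 37C 40 min; 50 mM citrate/phosphate pH 5.0, 0.01% Tween-20; stop pH 10; fluorescence 365/440; AC50 via Hill.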
* hit, by the source's call; x = not tested or not shown; & = joins results of further samples; [ ] = dose if it differs, or a comment. The call rests on the fitted dose curve; in most records, active means well fitted curve in the direction sought with a large enough effect; inconclusive means small, poorly fitted or top-dose-only effect, or another doubt; inactive means no such curve, though single readings can be large; an effect the other way counts as inactive or inconclusive. Potency means the concentration at half of the fitted maximal effect. These rows are one share of the data; count on the stated rates, not on these rows.

SMILES	GAA inh	GAA glycogen	GAA spleen mod	GLA spleen mod
CC[N+](C)(C)Cc1ccccc1Br	3%[15.4 µM]	-6%	1%	-2%
O=C1OC(C(O)CO)C(O)=C1O (configuration not stated)	x	x	0%	11%
O=C(O)c1cc(NS(=O)(=O)c2cccc3ccccc23)ccc1O	-4%	-11%	-10%	6%
CC(=O)OCC(=O)[C@@]1(O)CCC2C3CCC4=CC(=O)CC[C@]4(C)C3C(=O)C[C@]21C (some centres not stated)	x	x	-4%	-14%
CCOC(=O)c1ncn2c1CN(C)C(=O)c1cc(F)ccc1-2	2%&-7%[15.4 µM]	4%&-2%	5%&2%&8%&-2%&3%&-5%	1%&-1%&10%&-5%&4%&6%
CC1(C)O[C@@H]2C[C@H]3[C@H]4C[C@H](F)C5=CC(=O)C=C[C@@]5(C)[C@@H]4[C@H](O)C[C@]3(C)[C@]2(C(=O)CO)O1	x	x	1%[29.1 µM]	-1%[29.1 µM]
Cc1cccc(C)c1NC(=O)CN1CCNCC1	-10%	7%	-4%	8%
O=C1CC[C@H](C(=O)O)N1	x	x	-13%	2%
CC(=O)OCC(=O)[C@@]1(O)CCC2C3CCC4=CC(=O)C=CC4(C)C3C(O)C[C@]21C (some centres not stated)	x	x	-8%	-1%
COC(=O)C1=C(C)NC(C)=C(C(=O)OCCN(C)Cc2ccccc2)C1c1cccc([N+](=O)[O-])c1 (configuration not stated)	0%[15.4 µM]	-6%	1%&-1%&1%&-7%&-4%	-6%&-5%&8%&9%&-2%
CN[C@@H]1[C@H](O[C@H]2[C@H](O[C@H]3[C@H](O)[C@@H](O)[C@H](N=C(N)N)[C@@H](O)[C@@H]3N=C(N)N)O[C@@H](C)[C@]2(O)C=O)O[C@@H](CO)[C@H](O)[C@H]1O	x	x	2%	-19%
CC12CCC(=O)C=C1CCC1C2C(O)CC2(C)C1CCC2(O)C(=O)CO (configuration not stated)	x	12%[76.3 µM]	x	x
CCOC(=O)c1cc2ccc3ccccc3c2s1	1%	2%	6%	1%
CC(=O)OCC(=O)[C@@]1(O)CCC2C3CCC4=CC(=O)CCC4(C)C3C(=O)CC21C (some centres not stated)	x	-4%	x	x

Rewritten field by field: 3 of the compounds above.
COC(=O)C1=C(C)NC(C)=C(C(=O)OCCN(C)Cc2ccccc2)C1c1cccc([N+](=O)[O-])c1 (configuration not stated)
  GAA inh: 0%[15.4 µM]; GAA glycogen: -6%; GAA spleen mod: 1%&-1%&1%&-7%&-4%; GLA spleen mod: -6%&-5%&8%&9%&-2%

CN[C@@H]1[C@H](O[C@H]2[C@H](O[C@H]3[C@H](O)[C@@H](O)[C@H](N=C(N)N)[C@@H](O)[C@@H]3N=C(N)N)O[C@@H](C)[C@]2(O)C=O)O[C@@H](CO)[C@H](O)[C@H]1O
  GAA inh: x; GAA glycogen: x; GAA spleen mod: 2%; GLA spleen mod: -19%

CC12CCC(=O)C=C1CCC1C2C(O)CC2(C)C1CCC2(O)C(=O)CO (configuration not stated)
  GAA inh: x; GAA glycogen: 12%[76.3 µM]; GAA spleen mod: x; GLA spleen mod: x

Some values from the entries so far:
Under GLA spleen mod, CC(=O)OCC(=O)[C@@]1(O)CCC2C3CCC4=CC(=O)CC[C@]4(C)C3C(=O)C[C@]21C (some centres not stated) shows -14%
Under GAA glycogen, Cc1cccc(C)c1NC(=O)CN1CCNCC1 shows 7%

Structures from the list above with a halogen (3):
SMILES	GAA inh	GAA glycogen	GAA spleen mod	GLA spleen mod
CC[N+](C)(C)Cc1ccccc1Br	3%[15.4 µM]	-6%	1%	-2%
CCOC(=O)c1ncn2c1CN(C)C(=O)c1cc(F)ccc1-2	2%&-7%[15.4 µM]	4%&-2%	5%&2%&8%&-2%&3%&-5%	1%&-1%&10%&-5%&4%&6%
CC1(C)O[C@@H]2C[C@H]3[C@H]4C[C@H](F)C5=CC(=O)C=C[C@@]5(C)[C@@H]4[C@H](O)C[C@]3(C)[C@]2(C(=O)CO)O1	x	x	1%[29.1 µM]	-1%[29.1 µM]

Bioassay records (PubChem BioAssay)
